WNV protease inh: inhibitors of WNV NS2B-NS3 protease, primary screen, biochemical, fluorogenic substrate | fluorogenic substrate Ex360/Em465; stronger effect = lower value | AID 577, 2007 | z-score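 (tested at a level between 10 and 100 µM)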 | actives 0.18% (n = 65,000);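 active = z-score at -3 or under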;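 also: score is relative to mean and spread of the compound wells of a plate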
Target sequence (P06935 1371-1501 limits assumed): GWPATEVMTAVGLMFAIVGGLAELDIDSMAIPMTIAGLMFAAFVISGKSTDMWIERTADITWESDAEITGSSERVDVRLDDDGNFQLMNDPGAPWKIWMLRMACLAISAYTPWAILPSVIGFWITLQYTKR
Target sequence (P06935 1502-1679 limits assumed): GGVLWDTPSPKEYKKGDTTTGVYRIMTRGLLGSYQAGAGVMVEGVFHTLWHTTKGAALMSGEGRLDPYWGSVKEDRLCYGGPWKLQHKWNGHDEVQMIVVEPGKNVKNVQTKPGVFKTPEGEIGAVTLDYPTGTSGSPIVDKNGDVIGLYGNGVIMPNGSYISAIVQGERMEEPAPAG
MT1-MMP reporter: inhibitors of MT1-MMP promoter transcription, cell-based, luciferase reporter, luminescence (AID 618) | MT1-MMP promoter luciferase reporter cells, luminescence | calls from a first round at 10 µM; hits with a dose series show EC50 in µM | actives 0.62% (n = 87,000);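 active = over half of the reporter light lost at 10 µM or EC50 under 50 µM; inactive = the rest and hits that failed the dose series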;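 also: actives suppress MT1-MMP promoter-driven transcription so potencies describe inhibitors; HT1080 fibrosarcoma cells; overnight exposure; toxic or luciferase-blocking compounds were not removed from the actives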
Hsc70 ATP site: Hsc70 inhibitors, probe displacement, primary screen, biochemical, fluorescence polarization (AID 568); Heat shock cognate 71 kDa protein (Homo sapiens); 83,000 tested, under 10 active; one-dose displacement, % at 20 µM; IC50 in µM for titrated hits; Hsc70 fluorescence polarization, probe displacement; higher % means a stronger effect; strong numbers were not always called active;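 active = displacement above 50% without optical interference and an IC50 on retest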;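 also: ATPase domain with a fluorescein-tagged ATP probe; 0% = vehicle and 100% = excess ADP; read after one hour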
Active calls of the source: *; i = inactive; . = not tested or not shown. Some of the compounds tested. The share of hits here may be higher or lower than overall.

A first look, three compounds:
SMILES	WNV protease inh	MT1-MMP reporter	Hsc70 ATP site
COc1ccc(C2CC3CC(c4ccccc4)N2O3)cc1 (stereo not given)	1	i	-0.7%
COc1ccccc1NC(=O)N1CCN(c2ccccn2)CC1	-0.59	i	-0.9%
CSc1nnc2c3cc(F)ccc3n(Cc3ccccc3)c2n1	-0.1	i	3.4%

All compounds of this part, from the start:
SMILES	WNV protease inh	MT1-MMP reporter	Hsc70 ATP site
COc1ccc(C2CC3CC(c4ccccc4)N2O3)cc1 (stereo not given)	1	i	-0.7%
COc1ccccc1NC(=O)N1CCN(c2ccccn2)CC1	-0.59	i	-0.9%
CSc1nnc2c3cc(F)ccc3n(Cc3ccccc3)c2n1	-0.1	i	3.4%
Clc1ccc(CSc2nnc(NC3=NCCCCC3)s2)cc1	.	i	-3.7%
O=c1c2ccccc2nc(SCc2cc(F)cc3c2OCOC3)n1Cc1ccco1	-1.3	i	0.1%
CCOC(=O)c1c(NC(=O)CNCCO)sc(C)c1C	-1.1	i	0.6%
COc1cccc(-c2noc(CCC(=O)NC3CCCCC3)n2)c1	-0.48	i	-0.4%
COC(=O)CCn1nnc(-c2ccc(C(C)C)cc2)n1	0.08	0.11µM*	2.0%
CCOC(=O)CNC(=O)Cn1cnc2c(nnn2-c2ccc(F)cc2)c1=O	0.51	i	-1.6%
CCOC(=O)c1sc(C)c(C(=O)NCCCN2CCOCC2)c1N	0.14	i	-0.1%
N#C/C(C(=O)Oc1ccccc1)=C1/Nc2ccccc2-c2ccccc21	.	i	-1.5%
CCC(=O)c1ccccc1OCCSc1nc(C)cc(=O)[nH]1	-1.4	i	2.3%
Cc1cc(C)cc(OC(=O)N2CCOCC2)c1	-0.35	i	3.1%
Cc1ccc2cc(CNC(C)(C)C)c(=O)[nH]c2c1	0.07	i	-5.7%
CCN1C(=O)Cc2cc(S(=O)(=O)N3CCOCC3)ccc21	-0.69	i	7.0%
COC(=O)/C=c1/s/c(=C(/C#N)C(=O)N2CCCCC2)n(-c2ccccc2)c1=O	-0.68	i	-2.2%
COc1ccc(N2CCN(c3nc4ccccc4n3CC(=O)c3ccccc3)CC2)cc1	-0.7	i	-3.1%
O=C(CCN1C(=O)C2C3C=CC(C3)C2C1=O)Nc1nccs1 (stereo not given)	-0.39	i	-3.7%
COc1cccc(Nc2ncnc3c2cnn3-c2cccc(C)c2)c1	-1.1	i	3.8%
CCCCCCCC(=O)OC(CN1CCCCC1)CN1CCCC1=O (stereo not given)	.	i	-1.1%
CCN(c1cccc(C)c1)S(=O)(=O)c1c(C)[nH]c(=O)[nH]c1=O	.	i	2.5%
O=C(CCC(=O)NC1CC1)Nc1nnc(C2CCCCC2)s1	1.2	i	-1.5%
CC1(Cc2ccc3c(c2)OCO3)NC(=O)NC1=O (stereo not given)	-0.4	i	2.4%
Cc1noc(C)c1COc1ccc(C(=O)OCC(=O)Nc2ccc3ccccc3c2)cc1	.	i	-5.3%
CCOc1ccc(OCCSc2nc3ccccc3c(=O)[nH]2)cc1	.	i	5.1%
Cn1c(=O)n(C)c2cc(NC(=O)c3cc4ccccc4o3)ccc21	0.63	i	8.0%
COc1ccc(C2C3=C(CC(C)(C)CC3=O)Oc3ncn4nc(-c5cccnc5)nc4c32)cc1OC (stereo not given)	-1	i	-7.7%
COc1ccc(S(=O)(=O)N2Cc3ccccc3CC2C(=O)Nc2ccc(O)cc2)cc1OC (stereo not given)	-0.54	i	1.2%
Cn1c(CNc2ccc(Cl)cc2)nc2ccccc21	-0.22	i	-0.9%
O=C(Cn1cc(C(=O)C2CC2)c2ccccc21)NC1CCCC1	.	i	1.1%
CCCCOc1ccc(C(=O)Nc2cccc(C)n2)cc1	0.74	i	0.5%
CCCN(CCC)S(=O)(=O)c1ccc(C(=O)Nc2nnc(CSC)o2)cc1	1.6	i	-7.2%
CCOC(=O)C(C)Sc1nc2ccccc2c(=O)n1CC1CCCCC1 (stereo not given)	.	i	-1.2%
Cc1ccc(NC(=O)c2ccc(S(=O)(=O)N3CCCC3)cc2)cc1	0.02	i	4.1%
O=C(Nc1cccc(O)c1)C1CCCN1C(=O)OCc1ccccc1 (stereo not given)	0.05	i	3.0%
CCC(=O)N1CCN=C1SCc1ccccc1	-1	i	7.7%
O=C(NCCc1ccccc1F)[C@@H]1CSC2c3ccccc3C(=O)N21 (stereo not given in full)	-0.96	i	-1.0%
O=C(NCC1CCCO1)c1cccc(N2C(=O)C3C4C=CC(C4)C3C2=O)c1 (stereo not given)	0.0037	i	-0.1%
CCn1c(=O)cc(SCC(=O)N2CCN(c3ccccn3)CC2)c2ccccc21	-1.2	i	1.0%
CCCCCCNC(=O)c1c(O)c2cccc3c2n(c1=O)CCC3	1.2	i	5.6%
O=C(CSc1nnc(Cc2cc(=O)[nH]c(=O)[nH]2)n1-c1ccc(F)cc1)N1CCCCC1	-0.73	i	4.7%
CCC(=O)Nc1ccc2c(c1)ncn2-c1ccccc1	.	i	-0.2%
Cc1nn(C)cc1C(C(=O)NC1CCCCC1)N(C(=O)Cn1nnc2ccccc21)c1ccc(F)cc1 (stereo not given)	.	i	-1.5%
CC(C)Oc1ccccc1-c1nc(SCC(=O)O)n[nH]1	-1	i	-9.1%
CCCOC(=O)C1[C@H]2C(=O)N(CCCOC)C[C@]23C=C[C@H]1O3 (stereo not given in full)	-0.06	i	0.9%
COc1ccc(CCN2CC(C#N)=C3c4cc(OC)c(OC)cc4CCN3C2)cc1OC	-1.1	i	1.6%
Cc1nc2ccccc2c(=O)n1/N=C/c1cn(-c2ccccc2)nc1-c1cccs1	-0.81	i	-14%
O=C(NCc1ccco1)C1CN(S(=O)(=O)c2ccccc2)CCN1S(=O)(=O)c1ccccc1 (stereo not given)	-0.84	i	-2.7%
CC1CC(C)CN(CCCNC(=O)CNC(=O)Cn2ccc3ccccc3c2=O)C1 (stereo not given)	0.84	i	11%
Cc1cccc2cc(C#N)c(SCC(=O)N3CCC(C)CC3)nc12	-0.2	i	-9.6%
CCOC(=O)c1ccc(Nc2c(CC)c(C)nc3ncnn23)cc1	-0.2	i	8.3%
COC(=O)c1nc(-n2nc(C)cc2C)ccc1Cl	.	i	5.5%
CCN(CC)C(=O)CCC(=O)Nc1ccc(C(=O)OC)cc1	-0.89	i	-3.2%
C1=CN2CCC1C(c1ccccc1)C2 (stereo not given)	-0.0072	i	-5.0%
Cc1cc2nc(-c3ccc(NC(=O)C(C)C)cc3)oc2cc1C	-0.6	i	-13%
CSc1ccc(S(=O)(=O)NCc2ccc(C)cc2)cc1	.	i	0.7%
CCOC(=O)C1CCCN(Cc2nc(N)nc(Nc3ccc(Cl)cc3)n2)C1 (stereo not given)	0.24	i	-0.2%
Cc1cc(Oc2ccc(-c3ccccc3)cc2)n2ncnc2n1	0.37	i	4.4%
O=C(CNC(=O)c1ccco1)NCC(=O)OCc1ccccc1Br	1.1	i	4.4%
CCOc1cc2c(cc1OCC)C(c1ccc(O)c(OC)c1)NCC2 (stereo not given)	0.05	i	0.1%

Three entries picked at random from the list so far:
SMILES	WNV protease inh	MT1-MMP reporter	Hsc70 ATP site
CCN(CC)C(=O)CCC(=O)Nc1ccc(C(=O)OC)cc1	-0.89	i	-3.2%
Cc1cc2nc(-c3ccc(NC(=O)C(C)C)cc3)oc2cc1C	-0.6	i	-13%
CCCOC(=O)C1[C@H]2C(=O)N(CCCOC)C[C@]23C=C[C@H]1O3 (stereo not given in full)	-0.06	i	0.9%

Next part
SMILES	WNV protease inh	MT1-MMP reporter	Hsc70 ATP site
CN1CCN(c2cc(=O)n(C3CCCCC3)c(=O)[nH]2)CC1	0.09	i	1.4%
Cc1ccc(SCc2cc(=O)n3[nH]cnc3n2)cc1	-0.47	i	-3.1%
CCN1C(=O)CC(C(=O)Nc2ccc(F)cc2)SC1=Nc1cccc(OC)c1 (stereo not given)	0.48	i	-2.8%
CCOC(=O)C1CCN(C(=O)C2CCCCC2)CC1	1	i	-0.3%
CC(C)OCCCNC(=O)NC12CC3CC(CC(C3)C1)C2	-0.34	i	-11%
CC(C)NC(=O)CSCc1cccc(Br)c1	.	i	-0.4%
CC(=O)Nc1ccc(S(=O)(=O)NC(CC(=O)NC2CCCCC2C)C(C)C)cc1 (stereo not given)	0.12	i	-4.9%
Cn1c(=O)[nH]c(=O)c2c1nc(Br)n2CCSc1nnnn1-c1ccccc1	0.29	i	-2.3%
CCN(CC)CCN1C(=O)c2oc3ccccc3c(=O)c2C1c1cccc(Br)c1 (stereo not given)	-0.34	i	8.7%
Cc1ccccc1NC(=O)CC1SC(=NC2CCCCC2)NC1=O (stereo not given)	-0.85	i	0.9%
COc1ccc(OC)c(-c2cc(C(=O)NCCN3CCOCC3)no2)c1	-0.7	i	-1.4%
Cc1nn(C(C)(C)C)c(OC(=O)c2cccs2)c1S(=O)(=O)c1ccccc1	0.18	i	6.7%
Cc1cc(C)cc(-n2nnc(C(=O)NCc3ccccc3Cl)c2N)c1	0.34	i	-4.6%
COc1nc(N)nc(NC23CC4CC(CC(C4)C2)C3)n1	-0.4	i	-1.5%
CC(C)CCC(CCN1CCOCC1)c1ccc2c(c1)OCO2 (stereo not given)	-0.49	i	-2.1%
Cc1ccc(C)c(C(=O)Nc2c(C(N)=O)oc3ccccc23)c1	-1.4	i	0.7%
O=C(c1c[nH]c2ccc(S(=O)(=O)N3CCC4(CC3)OCCO4)cc2c1=O)N1CCOCC1	-0.6	i	3.2%
Cc1ccc(-n2ccnc2SCC(=O)N(CC(C)C)C2CCS(=O)(=O)C2)c(C)c1 (stereo not given)	2.3	i	2.8%
O=S(=O)(Nc1cccnc1)c1ccc(Cl)c(C(F)(F)F)c1	0.78	i	43%
Cc1ccc(CNC(=O)CCCNS(=O)(=O)c2cccc3nonc23)cc1	0.53	i	-5.4%
Cn1c(=O)c(C(=S)NC(=O)C2CC2)c(N)n(Cc2ccccc2)c1=O	0.64	i	-0.1%
COC(=O)c1cn(CC(=O)NC2CCCCCC2)c2ccccc12	.	i	2.4%
Cc1cccn2c(=O)c(/C=N/O)c(N3CCCC3)nc12	.	i	-3.4%
COc1cc2c(cc1OC)C(c1cccs1)CC(=O)N2 (stereo not given)	-0.48	i	3.3%
CCCc1cc(=O)[nH]c(SCC(=O)c2c(N)n(C)c(=O)n(C)c2=O)n1	0.37	i	3.9%
Cc1ncoc1C(=O)Nc1cccc(Cl)c1C	0.59	i	-5.1%
CC(=O)Nc1nonc1-n1nnc(C(=O)NCc2ccccc2)c1C	-1.4	i	2.2%
Clc1ccc(Cn2nnc(-c3ccccc3)n2)cc1	.	i	-0.6%
Fc1ccc(CSc2nnc(-c3cccnc3)n2Cc2ccco2)cc1	0.62	i	-2.3%
OC(COCc1cccs1)CN1CCCCCC1 (stereo not given)	-0.73	i	6.5%
COc1cc(NC(=O)NC(C)(C(F)(F)F)C(F)(F)F)cc(OC)c1OC	0.39	i	-1.4%
CC(C)CCNC(=O)C(c1cccs1)N(CC1CCCO1)C(=O)Cn1nnc2ccccc21 (stereo not given)	0.2	i	-3.3%
CCC(C)c1cc(S(=O)(=O)N2CCOCC2)ccc1OC (stereo not given)	0.82	i	-2.3%
COc1ccc(C2=CC(c3ccc(OC)c(OC)c3)n3nnnc3N2)c(OC)c1 (stereo not given)	-1.1	i	2.7%
CC(C)CCNc1nc(N2CCCC2)c2c(c1C#N)CCN(C)C2	0.84	i	11%
CCCCCCCC(=O)NNC(=O)CCC(=O)O	.	i	-8.0%
O=C(c1cc2ccccc2oc1=O)N(Cc1ccco1)Cc1cccs1	-0.44	i	-1.1%
C=C(C)Cn1c(Sc2nnc(C)s2)nc2c1c(=O)[nH]c(=O)n2C	-1.1	i	-2.6%
CCOC(=O)Cn1c(=O)oc2cc(S(=O)(=O)Nc3cccc(C)c3)ccc21	0.95	i	0.1%
c1ccc(-c2nc3cc(Cc4ccc5oc(-c6ccccn6)nc5c4)ccc3o2)nc1	0.13	i	4.2%
CC1(C)CC(=O)C2=C(C1)OC(N)=C(C#N)C2c1ccsc1 (stereo not given)	-0.66	i	-2.8%
O=C(NC1CCCCCC1)C1CCN(S(=O)(=O)N2CCC3(CC2)OCCO3)CC1	-0.77	i	4.0%
CC(=O)c1ccc(N2CCCC2)c(F)c1	0.34	i	-10%
CCOC(=O)c1c(C)[nH]c(C(=O)NCc2ccccc2OC)c1C	-1.2	i	-0.4%
COc1ccccc1NC(=O)N1CCCC1C(=O)Nc1ccc2c(c1)OCO2 (stereo not given)	-0.62	i	4.3%
CCCC1(C(=O)OC)NC(c2cc(OC)c(OC)c(OC)c2)C2C(=O)N(CC)C(=O)C21 (stereo not given)	0.09	i	4.8%
O=C1NCCCc2c1no[n+]2[O-]	-0.18	i	4.2%
C/C(NCc1cccnc1)=C(\C#N)C(=O)NCc1ccccc1	0.05	i	4.9%

Whole records, looked up by structure. Screens in order: WNV protease inh	MT1-MMP reporter	Hsc70 ATP site
CC1(C)CC(=O)C2=C(C1)OC(N)=C(C#N)C2c1ccsc1 (stereo not given) as listed: -0.66	i	-2.8%
CCOC(=O)c1c(C)[nH]c(C(=O)NCc2ccccc2OC)c1C as listed: -1.2	i	-0.4%
CC(=O)c1ccc(N2CCCC2)c(F)c1 as listed: 0.34	i	-10%
C/C(NCc1cccnc1)=C(\C#N)C(=O)NCc1ccccc1 as listed: 0.05	i	4.9%
CCCC1(C(=O)OC)NC(c2cc(OC)c(OC)c(OC)c2)C2C(=O)N(CC)C(=O)C21 (stereo not given) as listed: 0.09	i	4.8%

Screening data from PubChem BioAssay.
